# Screening data from PubChem BioAssay.
# TAR Tat displ = TAR RNA-Tat peptide displacers, HIV-1, primary screen, biochemical, FRET, FAM/TAMRA-labeled Tat; AID 1259389, 2018; z-score (no concentration beside the values); hit rate 0.6% among 100,000; HIV-1 TAR RNA, Tat peptide displacement FRET; active compounds read high;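 note: score is relative to mean and SD of negative controls; some compounds called inactive have numbers as strong as hits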
# CDC25B CDK2 inh = primary biochemical HTRF screen for blockers of M-phase inducer phosphatase 2 binding to CDK2/cyclin A; P30305+P24941; AID 1259370, 2018; HTRF CDC25B-CDK2/CyclinA binding, anti-His/anti-Flag; active compounds read high; hit rate 0.72% among 94,000; z-score (no concentration beside the values);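 note: score is relative to mean and SD of negative controls; strong numbers were not always called active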
# Starred values were filed as active, the others as inactive; · = no result given.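 Rule for the calls: active = z-score from 3 up in half or more of its runs; inactive = the rest.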 No enrichment for hits; overall some 0.87% were active at least once.
SMILES,TAR Tat displ,CDC25B CDK2 inh
N#CC1=C(N)OC(C2CC2)=C(C#N)C1c1ccco1 (configuration not stated),·,-1.3
CC(C)OCCCn1c(=O)c2ccccc2n2c(-c3cc(Br)cs3)nnc12,-0.01,-2.21
Cc1nc2ccc(S(=O)(=O)NC(CC(C)C)C(=O)NC3CCC(C)CC3)cc2s1 (configuration not stated),1.09,-0.33
CN(C)C(C(=O)Cn1c(C2CCCO2)nc2ccccc21)c1ccccc1 (configuration not stated),2.08,-0.64
COc1cccc(Oc2nc(C)nc3c2oc2ccccc23)c1,1.57,·
O=C(CCc1nc2sc3c(c2c(=O)[nH]1)CCCCC3)NCc1ccccn1,1.44,·
Cc1cc(-c2ccc(C)c(S(=O)(=O)NCc3ccco3)c2)on1,-0.09,·
O=c1c2sccc2nc(SCc2cc(=O)n3ccccc3n2)n1-c1ccc(Br)cc1,·,-4.91
OCCCc1nc2ccccc2n1CCCOc1ccccc1,·,-0.81
Cn1cc(NC(=O)NC2CCCCC2)c2ccccc2c1=O,0.91,19*
O=C(Nc1ccccc1C(=O)Nc1nncs1)c1ccccc1,·,-2.02
CC(=O)N1N=C(c2cccc(Cl)c2)OC1c1cncc(Br)c1 (configuration not stated),0.28,·
COC(=O)C1CCCN(S(=O)(=O)c2c(C)noc2/C=C/N(C)C)C1 (configuration not stated),2.43,·
CCN(CCNC(=O)Cn1nc(C)n2c(cc3sccc32)c1=O)c1ccccc1,1.36,-1.08
O=c1c2cccnc2n(Cc2cccc(F)c2)c(=O)n1Cc1ccc2c(c1)OCO2,0.21,-0.41
COc1ccc(C2Oc3c(OC)cccc3C3CC(c4ccccc4O)=NN32)c(OC)c1 (configuration not stated),-0.04,-0.53
Cn1ncc2c(NCc3ccc(F)cc3)nc(N3CCC(N4CCCCC4)CC3)nc21,1.3,·
CCOCCn1c(CN2CCc3ccccc3C2)nc2c1c(=O)n(C)c(=O)n2C,·,-1.08
CC(C)CNC1CC(=O)N(c2ccc(C(C)C)cc2)C1=O (configuration not stated),-1.21,-0.81
Cc1ccc2cc(CCNC(=O)c3ccc(Br)o3)c(=O)[nH]c2c1,·,-1.39
Cc1c(C(=O)N2CCCCC2)c(S(=O)(=O)NC2CCCc3ccccc32)c(C)n1C (configuration not stated),0.32,·
COc1ccc(OC)c(OCCOCCOc2cc(OC)ccc2OC)c1,·,-2.28
COCCCN1C(=O)c2oc3cc(C)c(C)cc3c(=O)c2C12C(=O)N(C)c1ccccc12 (configuration not stated),2.31,-2.44
O=C(NCc1ccc2c(c1)OCO2)c1ccc(OC(F)(F)F)cc1,·,-0.6
Cc1cc2c3c(C)n(Cc4ccccc4)c(C)c3c(C)nn2c1,·,0.97

# For reference, some entries already given.
SMILES,TAR Tat displ,CDC25B CDK2 inh
N#CC1=C(N)OC(C2CC2)=C(C#N)C1c1ccco1 (configuration not stated),·,-1.3
CC(C)OCCCn1c(=O)c2ccccc2n2c(-c3cc(Br)cs3)nnc12,-0.01,-2.21
Cc1nc2ccc(S(=O)(=O)NC(CC(C)C)C(=O)NC3CCC(C)CC3)cc2s1 (configuration not stated),1.09,-0.33
CN(C)C(C(=O)Cn1c(C2CCCO2)nc2ccccc21)c1ccccc1 (configuration not stated),2.08,-0.64
COc1cccc(Oc2nc(C)nc3c2oc2ccccc23)c1,1.57,·
O=C(CCc1nc2sc3c(c2c(=O)[nH]1)CCCCC3)NCc1ccccn1,1.44,·
Cc1cc(-c2ccc(C)c(S(=O)(=O)NCc3ccco3)c2)on1,-0.09,·
O=c1c2sccc2nc(SCc2cc(=O)n3ccccc3n2)n1-c1ccc(Br)cc1,·,-4.91
OCCCc1nc2ccccc2n1CCCOc1ccccc1,·,-0.81
Cn1cc(NC(=O)NC2CCCCC2)c2ccccc2c1=O,0.91,19*
O=C(Nc1ccccc1C(=O)Nc1nncs1)c1ccccc1,·,-2.02
CC(=O)N1N=C(c2cccc(Cl)c2)OC1c1cncc(Br)c1 (configuration not stated),0.28,·
COC(=O)C1CCCN(S(=O)(=O)c2c(C)noc2/C=C/N(C)C)C1 (configuration not stated),2.43,·
CCN(CCNC(=O)Cn1nc(C)n2c(cc3sccc32)c1=O)c1ccccc1,1.36,-1.08
O=c1c2cccnc2n(Cc2cccc(F)c2)c(=O)n1Cc1ccc2c(c1)OCO2,0.21,-0.41

# Continuation:
SMILES,TAR Tat displ,CDC25B CDK2 inh
O=C(CCc1nc(-c2cccs2)no1)N1CCN(c2ccccc2F)CC1,0.25,-1.61
Cc1cc2c(cc1S(=O)(=O)CCC(=O)N(C)C1CCCCC1)OCC(=O)N2,1.88,·
COCc1nc2ccccc2n1Cc1cccc(Cl)c1,1.69,-1.3
Cc1nc(N2CCCC2)ncc1C(=O)NCCN1CCOCC1,1.66,·
O=C(Nc1ccccc1F)C1CCCN(c2ncnc3c2nc2n3CCCCC2)C1 (configuration not stated),0.9,·
Cc1c(-c2nsc(NC(=O)c3cccs3)n2)nnn1-c1ccc(F)cc1,0.82,·
COc1cc2c(c(OC)c1)C(c1ccc(Br)cc1)C1=C(CC(C)(C)CC1=O)N2 (configuration not stated),1.05,-0.78
CSc1nc2sc3c(c2c(=O)n1-c1ccccc1)CCN(C(C)=O)C3,-0.12,-2.18
C/C(=N\OC(=O)Nc1ccccc1)c1sc2ccccc2c1C,·,-9.32
Cc1cccc(N2C(=O)N(c3cccc(C)c3C)C3CS(=O)(=O)CC32)c1 (configuration not stated),2.88,-2.32
c1ccc(C2CC(c3ccco3)n3ncnc3N2)cc1 (configuration not stated),0.63,-2.23
Cc1ccn2cc(CCNC(=O)CC(C)(C)C)nc2c1,·,-1.02
COc1cc2ccccc2cc1C(=O)Nc1cccc(-c2nc3ccccc3o2)c1,·,-5.98
COc1cc2c(cc1OC)C(Cc1ccccc1Br)=NC(C)(C)C2,·,-0.44
O=C(CSc1nc2c(c(=O)[nH]1)CCC2)Nc1ccc(Br)cc1F,1.76,-1.6
O=c1c2sccc2n(Cc2cc(=O)n3cc(Cl)ccc3n2)c(=O)n1-c1ccccc1,·,-0.75
CCC(=O)NS(=O)(=O)c1ccc(-c2c(-c3ccccc3)noc2C)cc1,0.97,·
O=C(NCc1csc(-c2ccccc2)n1)[C@H]1CSCN1C(=O)c1cccc(F)c1,2.29,·
CN(CCCNc1ncnc2onc(-c3cc(F)cc(F)c3)c12)Cc1ccccc1,0.82,·
CCOC(=O)c1c(NC(=O)CCC(=O)O)sc2c1CCCCC2,0.96,-0.47
CCCc1nnc2n1C(C)(C)Cc1ccccc1-2,1.17,-1.33
CCCCN(C)C(=O)C1=C(C)C(=O)OC12CCN(S(C)(=O)=O)CC2,0.92,·
Cc1csc2nc(-c3ccc(NS(=O)(=O)c4cccs4)cc3)cn12,0.34,·
CCC(C)N1C(=O)C2C(C(=O)Nc3ccc(Cl)cc3)C3C=CC2(O3)C1C(=O)NC1CCCCC1 (configuration not stated),1.5,-2.11
O=C(CN1C(=O)c2ccccc2C1=O)NCCCN1CCOCC1,·,-0.72
# Further records
SMILES,TAR Tat displ,CDC25B CDK2 inh
O=C(Cn1c(=O)oc2cc(S(=O)(=O)N3CCOCC3)ccc21)NC1CCCCCCC1,·,-0.17
Cc1ccc(NS(=O)(=O)c2c(C)nc3scc(C)n3c2=O)cc1,1.15,-1.03
O=C(O)COCC(=O)Nc1nc(SCc2ccc(Cl)cc2)n[nH]1,·,-1.76
CN(C)CCCn1c(C2CC(=O)N(c3ccc(F)cc3)C2)nc2ccccc21 (configuration not stated),-1.03,-0.99
CC(=O)Nc1ccc(C(=O)CSc2nc3nc(C)cc(C)c3c(=O)[nH]2)cc1,-1.2,0.48
CCc1cc(-c2[nH]ncc2-c2ccc(OC)cc2)c(O)cc1O,2.68,-1.03
CCCc1cc(=O)n2nc(N(C)CC(=O)NCCOC)sc2n1,1.4,1
Cc1ccc(C)n1-c1ccc(C(=O)NNC(=O)c2ccc3nccnc3c2)cc1,·,-2.29
Cc1nn(C)cc1CN(C)C(=O)c1nn2c(c1Cl)NC(c1cccs1)CC2C(F)(F)F (configuration not stated),0.58,-0.75
Cc1ccc2nsnc2c1S(=O)(=O)Nc1ccc(Br)cc1,1.89,-1.74
C#CCN(C)Cc1ccccc1,0.19,-0.8
OC(CN1CCCC1)Cn1c2ccccc2c2ccccc21 (configuration not stated),·,0.45
Cc1cc(C)c(-c2n[nH]c3c2C(c2ccc(F)cc2)N(Cc2ccco2)C3=O)c(O)c1 (configuration not stated),-1.3,-1.68
Cc1nc2ccccn2c(=O)c1Cc1nnc(SCC(=O)Nc2ccc(F)c(Cl)c2)n1C,0.06,-0.98
COc1ccc(C2C(C(=O)OCc3ccccc3)=C(C)NC3=C2C(=O)CC(C)(C)C3)cc1OC (configuration not stated),2.76,-0.27
O=c1[nH]nc(-c2cccs2)cc1Cc1ccc(Cl)c(Cl)c1,·,-1.48
O=C(O)c1nnn(-c2cccc(C(F)(F)F)c2)c1-c1ccccc1,·,-1.2
Cc1c2occ(-c3ccc(F)cc3)c2cc2c3c(c(=O)oc12)CCC3,·,0.26
CCOc1ccc(/C(O)=C2\C(=O)C(=O)N(Cc3cccnc3)C2c2ccc(OC)c(OC)c2)cc1 (configuration not stated),0.78,-1.35
Clc1cc(CN2CCSCC2)c(Cl)s1,·,-0.24
CCN(C(=O)c1cnc(OC)cc1C(F)(F)F)c1ccc(Cl)cc1Cl,·,-1.66
CSCC[C@H](NC(=O)OCc1ccccc1)C(=O)O,-0.17,1.42
COc1ccc(Cn2cc(C(=O)c3ccc(OC)cc3)c(=O)c3cc(OC)ccc32)cc1,0.27,-0.27
COc1ccc(Br)cc1CC1C(=O)Nc2ccccc21 (configuration not stated),-2.82,-0.21
Clc1ccc(CNc2nc(-c3ccccc3)no2)cc1,2.9,·
# Next part
SMILES,TAR Tat displ,CDC25B CDK2 inh
Cc1cn2c(=O)c(S(=O)(=O)N3CCN(c4ccccc4)CC3)c(C)nc2s1,0.09,-1.6
O=C(c1ccccc1)c1cc(Cl)ccc1NC1c2ncccc2C(=O)N1Cc1cccs1 (configuration not stated),0.39,-1.41
COc1cc2c(cc1OC)C(c1ccc3c(c1)OCO3)CC(=O)N2 (configuration not stated),-0.32,-1.03
O=C(Nc1nc2cc3c(cc2s1)OCO3)c1ccc(S(=O)(=O)N2CCCCC2)cc1,1.31,·
CCCCCCNC(=O)NC(Cc1ccccc1)C(=O)OCC (configuration not stated),·,-1
COc1ccccc1/C=C/c1nc(C#N)c(NCc2ccco2)o1,-0.86,-2.22
COc1cc(C2SC(NC(C)=O)=NN2C(C)=O)cc(Cl)c1OC(=O)c1ccco1 (configuration not stated),1.46,0.84
Cc1ccc(-c2c(N3CCOCC3)c(=O)c2=O)cc1C,2.39,·
CC(C)(C)c1nnc(Nc2ccc3c(c2)OCO3)[nH]c1=O,·,-2.05
COc1ccc(Cn2cc(C(=O)c3ccc(F)cc3)c(=O)c3cc(OC)c(OC)cc32)cc1,1.24,-0.25
O=C(CSc1n[nH]c(-c2ccccc2Cl)n1)c1ccc(O)c(O)c1,1.28,0.12
COc1ccc(-c2nc(N)n(C(=O)c3cccs3)n2)cc1,·,-0.84
COc1ccc(-n2c(SC)nnc2-c2c[nH]c3ccccc23)cc1,·,-1.73
CCOC(=O)N1CCN(c2ncnc3c2cnn3-c2ccccc2)CC1,0.46,·
Cc1ccn2c(=O)c(NC(=O)c3ccccc3F)c(C)nc2c1,1.14,·
C#CCOc1cccc(C2CC(=O)Nc3c2c(C)nn3-c2nncc(-c3ccccc3)n2)c1 (configuration not stated),2.04,·
COC(=O)C1CN(C(=O)COc2ccccc2)c2ccccc2O1 (configuration not stated),1.08,-2.07
CC(C)(C)c1ccc(C(=O)NCC(=O)OCc2cc(=O)n3ccsc3n2)cc1,0.67,·
Cc1nc(C)c(CCNS(=O)(=O)c2cc(F)ccc2F)s1,0.89,·
CC1Cc2ccccc2N1C(=O)C1CCN(S(=O)(=O)c2ccc3c(c2)oc(=O)n3C)CC1 (configuration not stated),·,-0.18
O=C(Cn1cnc(S(=O)(=O)N2CCOCC2)c1)Nc1cccc(Br)c1,1.08,·
O=C(CC1(O)C(=O)N(Cc2ccccc2)c2ccc(Br)cc21)c1ccc2c(c1)OCO2 (configuration not stated),1.89,0.07
CCOC(=O)/C(C#N)=C/N(C)/N=C/c1ccccc1,·,-0.91
CCN(CC)CCn1c(C)c(C)c2c1ncn1nc(Cc3ccc(OC)cc3)nc21,1.71,-1.24
COc1ccc(F)cc1S(=O)(=O)Nc1cccc(-c2ccc(S(C)(=O)=O)nn2)c1,-0.74,·
# Continued.
SMILES,TAR Tat displ,CDC25B CDK2 inh
CCCc1nnc2c(=O)[nH]c3ccccc3n12,0.79,0.13
CCOC(=O)C1CCN([C@H]2CS(=O)(=O)C[C@@H]2S(=O)(=O)c2ccc(OCC)cc2)CC1,-0.8,-2.34
O=C(O)CSCC(=O)Nc1cnccn1,·,-1.2
O=c1cc2nc(-c3ccco3)nc(SCCOc3ccccc3Cl)n2[nH]1,-0.8,·
Cc1nn(CCCC(=O)NC2CCCC(C)C2C)c(=O)c2cc3sccc3n12 (configuration not stated),0.11,-0.85
COC(=O)CCCCC(=O)c1[nH]c(=O)[nH]c1C,0.57,0.2
CCCCCCCOC(=O)C1=C(C)Nc2nnnn2C1c1ccc(C)cc1 (configuration not stated),-0.62,-0.84
O=C(O)CCSc1nnc(COc2ccccc2)o1,1.44,-1.29
COc1ccc(S(=O)(=O)Nc2cc3c(C(C)=O)c(C)oc3c3ccccc23)cc1,·,-6.54
NS(=O)(=O)C1CCS(=O)(=O)C1 (configuration not stated),-1.01,-0.32
Cc1ccc(Nc2nc(NCc3ccco3)nc3c2cnn3C)c(C)c1,3.66*,·
CCOC(=O)Cn1c(=O)oc2cc(S(=O)(=O)N3CCC(C(=O)OCC)CC3)ccc21,2.39,-1.63
CC(C)Sc1ncc(Cl)c(C(=O)Nc2ccc(F)cc2)n1,-0.05,-0.94
CC(=O)Nc1ccc(S(=O)(=O)[C@H]2CS(=O)(=O)C[C@@H]2N2CCCCC2)cc1,0.55,-2.17
